# From PubChem BioAssay
# Env fusion inh = inhibitors of HIV-1 Env-driven cell-cell fusion, primary screen, HeLa-JRFL effector, CEM21 target cells, luciferase. inhibition, % at 12.3 µM. actives 1.1% (n = 360,000);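 active = mean replicate inhibition score of at least 50 and every replicate individually at or above 50; inconclusive = only one of the two criteria met; inactive = mean below 50 and not all replicates reaching 50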;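 also: 0% = plate neutral controls and 100% = maraviroc near 300 nM; one replicate is shown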
# Yeast UUG start = modulators of yeast start codon fidelity, primary screen, whole organism, S. cerevisiae, single point, plate reader. S. cerevisiae UUG-firefly luciferase reporter, luminescence/redox ratio. activity score, % at 18.7 µM. actives 0.13% (n = 350,000);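 active = replicate mean at a twofold rise or more, about +100% in these data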;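 also: firefly luciferase made from a UUG start codon reports start codon fidelity; reporter light over untreated wells divided by growth signal over untreated wells; some hits fall short of that in this replicate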
# * hit, by the source's call; ? = inconclusive; & = joins results of further samples; [ ] = dose if it differs, or a comment. A portion of the library; count on the stated rates, not on these rows.
Molecule	Env fusion inh	Yeast UUG start
C[C@H](CO)N1C[C@H](C)[C@H](CN(C)C(=O)Nc2ccccc2)Oc2c(NC(=O)c3ccc(-c4nccs4)cc3)cccc2C1=O	-43[16.7 µM]	4
CCCNC(=O)C[C@@H]1CC[C@@H]2[C@@H](COc3ccc(NC(=O)Nc4cccc(C)c4)cc3C(=O)N2C)O1	27[16.7 µM]	-19
C[C@@H]1CCCCO[C@H](CN(C)Cc2ccc3c(c2)OCO3)[C@@H](C)CN([C@H](C)CO)C(=O)c2cc(NS(C)(=O)=O)ccc2O1	3[16.7 µM]	-8
C[C@@H]1CCCCO[C@H](CN(C)Cc2ccccc2)[C@@H](C)CN([C@H](C)CO)C(=O)c2cc(NC(=O)NC3CCCCC3)ccc2O1	7[16.7 µM]	4
[N-]=[N+]=Nc1ccccc1C[C@@]1(C(=O)NCCN2CCOCC2)N=C(c2ccc(OCCCO)cc2)O[C@@H]1c1ccccc1N=[N+]=[N-]	6[16.7 µM]	0
CCCN(C)C[C@H]1Oc2cc(/C=C/c3ccccc3)ccc2S(=O)(=O)N([C@@H](C)CO)C[C@H]1C	2[16.7 µM]	16
C[C@@H]1CN([C@H](C)CO)C(=O)c2cccc(NC(=O)Nc3ccccc3)c2O[C@@H]1CN(C)S(=O)(=O)c1cn(C)cn1	-7[16.7 µM]	-1
C[C@@H]1CN([C@@H](C)CO)S(=O)(=O)c2ccc(C#Cc3ccccn3)cc2O[C@@H]1CN(C)Cc1cccc(F)c1	-60[16.7 µM]	-3
C[C@H]1CN([C@@H](C)CO)C(=O)Cc2cc(NC(=O)Nc3cccc4ccccc34)ccc2O[C@H]1CN(C)CC1CCCCC1	0[16.7 µM]	9
NCC[C@H]1CC[C@H](NC(=O)C2CCCCC2)[C@H](CO)O1	-6[16.7 µM]	-2
Cc1ccc(S(=O)(=O)N(C)C[C@H]2Oc3c(NC(=O)c4cc(C)nn4C)cccc3C(=O)N([C@H](C)CO)C[C@H]2C)cc1	-20[16.7 µM]	-1
O=C(C[C@@H]1CC[C@H]2[C@@H](COC[C@H](O)CN2C(=O)c2cnccn2)O1)NCc1ccc(F)cc1	-13[16.7 µM]	-1
COCC(=O)Nc1ccc2c(c1)C(=O)N(C)C[C@H](OC)[C@@H](C)CN(Cc1ccncc1)[C@@H](C)CO2	10[16.7 µM]	-13
C[C@H](CO)N1C[C@H](C)[C@H](CN(C)C(=O)CN(C)C)Oc2ncc(-c3ccccc3F)cc2C1=O	1[16.7 µM]	-9
C[C@H](CO)N1C[C@H](C)[C@H](CN(C)Cc2ccncc2)Oc2ncc(-c3cccc(F)c3)cc2C1=O	11&11[16.7 µM]	9&6
CO[C@@H]1CN(C)C(=O)c2cc(NC(C)=O)ccc2OC[C@@H](C)N(C(=O)CN(C)C)C[C@H]1C	4[16.7 µM]	-4
CCCNC(=O)N[C@H]1CC[C@H](CCn2cc(C3CC3)nn2)O[C@H]1CO	20[16.7 µM]	-11
C[C@@H]1CN([C@H](C)CO)C(=O)c2cc(NC(=O)Nc3ccc(C(F)(F)F)cc3)ccc2O[C@H]1CN(C)Cc1ccc2c(c1)OCO2	30[16.7 µM]	-7
CN(C)CC(=O)Nc1ccc2c(c1)[C@@H]1C[C@H](CC(=O)NCc3cccc(F)c3)O[C@H](CO)[C@@H]1O2	?	0
Cc1noc(C)c1NC(=O)N(C)C[C@H]1Oc2ccc(NC(=O)C3CC3)cc2CC(=O)N([C@@H](C)CO)C[C@@H]1C	6[16.7 µM]	-5

# 9 entries out of the list, arranged by length of the SMILES, highest first.
Molecule	Env fusion inh	Yeast UUG start
C[C@@H]1CCCCO[C@H](CN(C)Cc2ccc3c(c2)OCO3)[C@@H](C)CN([C@H](C)CO)C(=O)c2cc(NS(C)(=O)=O)ccc2O1	3[16.7 µM]	-8
C[C@@H]1CN([C@H](C)CO)C(=O)c2cc(NC(=O)Nc3ccc(C(F)(F)F)cc3)ccc2O[C@H]1CN(C)Cc1ccc2c(c1)OCO2	30[16.7 µM]	-7
C[C@@H]1CCCCO[C@H](CN(C)Cc2ccccc2)[C@@H](C)CN([C@H](C)CO)C(=O)c2cc(NC(=O)NC3CCCCC3)ccc2O1	7[16.7 µM]	4
Cc1ccc(S(=O)(=O)N(C)C[C@H]2Oc3c(NC(=O)c4cc(C)nn4C)cccc3C(=O)N([C@H](C)CO)C[C@H]2C)cc1	-20[16.7 µM]	-1
C[C@@H]1CN([C@H](C)CO)C(=O)c2cccc(NC(=O)Nc3ccccc3)c2O[C@@H]1CN(C)S(=O)(=O)c1cn(C)cn1	-7[16.7 µM]	-1
C[C@@H]1CN([C@@H](C)CO)S(=O)(=O)c2ccc(C#Cc3ccccn3)cc2O[C@@H]1CN(C)Cc1cccc(F)c1	-60[16.7 µM]	-3
CCCNC(=O)C[C@@H]1CC[C@@H]2[C@@H](COc3ccc(NC(=O)Nc4cccc(C)c4)cc3C(=O)N2C)O1	27[16.7 µM]	-19
O=C(C[C@@H]1CC[C@H]2[C@@H](COC[C@H](O)CN2C(=O)c2cnccn2)O1)NCc1ccc(F)cc1	-13[16.7 µM]	-1
CO[C@@H]1CN(C)C(=O)c2cc(NC(C)=O)ccc2OC[C@@H](C)N(C(=O)CN(C)C)C[C@H]1C	4[16.7 µM]	-4

# (further entries)
Molecule	Env fusion inh	Yeast UUG start
Cc1cc(C(=O)Nc2cccc3c2O[C@@H](CN(C)Cc2ccc(C(F)(F)F)cc2)[C@H](C)CN([C@H](C)CO)C3=O)n(C)n1	8[16.7 µM]	-8
Cc1noc(C)c1NC(=O)Nc1ccc2c(c1)C(=O)N([C@@H](C)CO)C[C@H](C)[C@H](CN(C)S(=O)(=O)c1ccc(F)cc1)OCCCC[C@@H](C)O2	-24[16.7 µM]	21
C[C@@H]1CCCCO[C@@H](CN(C)Cc2ccc(C(=O)O)cc2)[C@@H](C)CN([C@@H](C)CO)C(=O)c2cc(NC(=O)Cc3ccccc3)ccc2O1	-9[16.7 µM]	17
Cc1ccc(S(=O)(=O)Nc2ccc3c(c2)C(=O)N([C@H](C)CO)C[C@H](C)[C@H](CN(C)S(=O)(=O)c2ccc(Cl)cc2)OCCCC[C@@H](C)O3)cc1	-7[16.7 µM]	-8
COc1ccc(S(=O)(=O)Nc2ccc3c(c2)C(=O)N([C@@H](C)CO)C[C@@H](C)[C@H](CN(C)C(=O)Nc2ccc4c(c2)OCO4)OCCCC[C@@H](C)O3)cc1	-14[16.7 µM]	3
C[C@H](CO)N1C[C@H](C)[C@H](CN(C)C(=O)Nc2ccc(C(F)(F)F)cc2)Oc2ccc(NS(C)(=O)=O)cc2CC1=O	0[16.7 µM]	-12
CC(C)CC#Cc1cnc2c(c1)C(=O)N([C@H](C)CO)C[C@H](C)[C@@H](CN(C)Cc1ccc(F)cc1)O2	4[16.7 µM]	0
COc1ccc(NC(=O)N(C)C[C@@H]2Oc3c(NC(=O)Nc4ccc(C(F)(F)F)cc4)cccc3C(=O)N([C@H](C)CO)C[C@@H]2C)cc1	13[16.7 µM]	1
O=C(C[C@H]1CC[C@H]2[C@@H](COC[C@@H](O)CN2CCC(F)(F)F)O1)NCc1ccc2c(c1)OCO2	19[16.7 µM]	-14
COC(=O)C[C@@H]1CC[C@@H]2[C@H](COC[C@H](O)CN2C(=O)Nc2cccc(F)c2)O1	-15[16.7 µM]	-14
C[C@@H]1CN([C@H](C)CO)C(=O)c2cc(NC(=O)Nc3ccc(F)cc3)ccc2O[C@H]1CN(C)Cc1ccncc1	6[16.7 µM]	1
C[C@@H]1CN([C@H](C)CO)C(=O)c2cc(C#Cc3cccnc3)cnc2O[C@@H]1CN(C)C	-3[16.7 µM]	9
C[C@H]1CN([C@@H](C)CO)S(=O)(=O)c2ccc(-c3cccc(F)c3)cc2O[C@@H]1CN(C)S(C)(=O)=O	14[16.7 µM]	24
COc1ccc(S(=O)(=O)Nc2ccc3c(c2)C(=O)N([C@@H](C)CO)C[C@@H](C)[C@H](CN(C)S(C)(=O)=O)OCCCC[C@@H](C)O3)cc1	-16[16.7 µM]	10
CNC[C@@H]1Oc2ccc(NC(=O)C3CC3)cc2CC(=O)N([C@H](C)CO)C[C@H]1C	17[16.7 µM]	-5
C[C@@H]1CN([C@@H](C)CO)C(=O)Cc2cc(NC(=O)Nc3ccc(F)cc3)ccc2O[C@@H]1CN(C)Cc1ccccc1	4[16.7 µM]	-4
COc1ccc(NC(=O)N(C)C[C@@H]2Oc3c(NC(=O)C4CCCCC4)cccc3C(=O)N([C@@H](C)CO)C[C@H]2C)cc1	-16[16.7 µM]	5
C[C@@H]1CN([C@@H](C)CO)S(=O)(=O)c2ccc(C#CC3(O)CCCC3)cc2O[C@H]1CN(C)C(=O)Nc1cccc(F)c1	-48[16.7 µM]	0
CC(=O)Nc1ccc2c(c1)C(=O)N(C)[C@@H]1CC[C@H](CC(=O)NCC3CC3)O[C@@H]1CO2	-32[16.7 µM]	15
O=C(N[C@H]1CC[C@@H](CCn2cc(-c3ccccc3)nn2)O[C@H]1CO)c1cnccn1	9[16.7 µM]	0
C[C@H](CO)N1C[C@H](C)[C@H](CN(C)S(=O)(=O)c2cn(C)cn2)Oc2c(NS(=O)(=O)c3ccc(F)cc3)cccc2C1=O	5[16.7 µM]	3
C[C@@H]1CN([C@@H](C)CO)C(=O)c2cccc(N(C)C)c2O[C@H]1CN(C)S(=O)(=O)c1cccs1	23[16.7 µM]	2
O=C(Nc1cc(F)ccc1F)N[C@@H]1C=C[C@H](CC(=O)N2CCc3ccccc3C2)O[C@H]1CO	-3[16.7 µM]	13
CO[C@@H]1CN(C)C(=O)c2ccc(NC(C)=O)cc2OC[C@@H](C)N(CC2CC2)C[C@@H]1C	-8[16.7 µM]	-7
COc1ccccc1NC(=O)N[C@H]1CC[C@H](CCn2cc(-c3ccccc3)nn2)O[C@@H]1CO	7[16.7 µM]	-1
O=C(Nc1ccc(Cl)cc1)N[C@H]1CC[C@H](CCn2cc(Cc3ccccc3)nn2)O[C@@H]1CO	-2[16.7 µM]	-12
C[C@@H]1CN([C@H](C)CO)C(=O)c2cc(-c3cccc(C#N)c3)cnc2O[C@H]1CN(C)C(=O)C1CCC1	34[16.7 µM]	-1
C[C@@H]1CN([C@@H](C)CO)C(=O)Cc2cc(NS(=O)(=O)c3cn(C)cn3)ccc2O[C@H]1CN(C)Cc1ccc(Oc2ccccc2)cc1	-15[16.7 µM]	9
CCCC(=O)Nc1ccc2c(c1)C(=O)N(C)[C@@H]1CC[C@H](CC(=O)OC)O[C@@H]1CO2	28[16.7 µM]	-6
Cc1cc(C(=O)Nc2ccc3c(c2)C(=O)N(C)[C@@H]2CC[C@@H](CC(=O)N[C@@H](C)c4ccccc4)O[C@@H]2CO3)no1	22[16.7 µM]	24
CCC(=O)Nc1ccc2c(c1)C(=O)N(C)[C@@H]1CC[C@H](CC(=O)NCCOC)O[C@H]1CO2	-8[16.7 µM]	6
CC(C)NC(=O)N(C)C[C@H]1OCCCC[C@@H](C)Oc2ccc(NS(=O)(=O)c3ccc(F)cc3)cc2C(=O)N([C@H](C)CO)C[C@@H]1C	-27[16.7 µM]	29
CC(C)CC#Cc1cnc2c(c1)C(=O)N([C@H](C)CO)C[C@H](C)[C@H](CN(C)C(=O)C1CCCCC1)O2	-2[16.7 µM]	10
C[C@H](CO)N1C[C@H](C)[C@@H](CN(C)C(=O)c2ccncc2)OCCCC[C@H](C)Oc2ccc(NS(=O)(=O)c3ccc(Cl)cc3)cc2C1=O	-39[16.7 µM]	9
Cc1ccc(S(=O)(=O)Nc2ccc3c(c2)C(=O)N([C@@H](C)CO)C[C@@H](C)[C@@H](CN(C)S(=O)(=O)c2cn(C)cn2)O3)cc1	-14[16.7 µM]	-12
C[C@H](CO)N1C[C@H](C)[C@@H](CN(C)Cc2ccc(C(F)(F)F)cc2)Oc2ccc(NC(=O)Nc3ccc4c(c3)OCO4)cc2C1=O	8[16.7 µM]	4
CCCN(C)C[C@@H]1Oc2ncc(-c3cccnc3)cc2C(=O)N([C@H](C)CO)C[C@H]1C	-16[16.7 µM]	-6
C[C@@H]1CCCCO[C@@H](CN(C)C(=O)Cc2ccccc2)[C@H](C)CN([C@@H](C)CO)C(=O)c2cc(NS(=O)(=O)c3ccc(Cl)cc3)ccc2O1	-10[16.7 µM]	-12
Cc1ccc(S(=O)(=O)N(C)C[C@H]2OCCCC[C@H](C)Oc3ccc(NC(=O)Nc4ccc(C(F)(F)F)cc4)cc3C(=O)N([C@H](C)CO)C[C@H]2C)cc1	-6[16.7 µM]	-18
C[C@H]1CN([C@@H](C)CO)C(=O)c2cc(NC(=O)Cn3cnnn3)ccc2O[C@H]1CN(C)Cc1ccccc1	5[16.7 µM]	-13
C[C@@H]1CCCCO[C@H](CN(C)C(=O)CCC(F)(F)F)[C@@H](C)CN([C@@H](C)CO)C(=O)c2cc(NC(=O)CCCN(C)C)ccc2O1	-4[16.7 µM]	18
C[C@H]1CN([C@@H](C)CO)C(=O)Cc2cc(NS(=O)(=O)c3cccs3)ccc2O[C@@H]1CN(C)Cc1ccc2c(c1)OCO2	5[16.7 µM]	-6
C[C@H]1CN([C@@H](C)CO)S(=O)(=O)c2ccc(Br)cc2O[C@@H]1CN(C)CC1CCOCC1	7[16.7 µM]	-7
COc1ccccc1C(=O)Nc1ccc2c(c1)OC[C@H](C)NC[C@H](C)[C@H](OC)CN(C)C2=O	-7[16.7 µM]	-13
C[C@@H]1CN([C@H](C)CO)C(=O)Cc2cc(NS(C)(=O)=O)ccc2O[C@H]1CN(C)CC1CC1	-6[16.7 µM]	0
COc1ccc(-c2ccc([C@@H]3[C@@H](C#N)N(C(=O)CN(C)C)[C@@H]3CO)cc2)cc1	-10[16.7 µM]	17
